Vif A3G = inhibitors of Vif binding to APOBEC3G peptide, primary screen, biochemical, TR-FRET, GST-Vif 1-94, biotin-A3G peptide, dose response retest (AID 1117319); TR-FRET GST-Vif / biotin-A3G peptide binding; higher % means a stronger effect; test concentration not given here; strong numbers were not always called active; Virion infectivity factor (Human immunodeficiency virus type 1 group M subtype B (isolate …; 260,000 tested, 0.57% active; inhibition, %; hits with a dose series show IC50 in µM;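 active = above the screen mean plus three standard deviations and confirmed in dose response; inconclusive = results disagree or hit not tested in dose response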;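 also: Vif residues 1-94 fused to GST binding biotinylated APOBEC3G peptide 110-148; 0% = full assay without inhibitor and 100% = GST in place of GST-Vif; retest series ran down from 100 µM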
AF4-AF9 inh = inhibitors of AF4 peptide binding to AF9, primary screen, biochemical, AlphaScreen, biotin-AF4 peptide, FLAG-AF9, single point. Protein AF-9 (Homo sapiens), P42568. inhibition, % at 10 µM. 350,000 tested, 0.47% active. AID 651704, 2012;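 active = every replicate reaching a set inhibition limit, whatever the replicate mean, cut at about 25% in these data; inconclusive = mean inhibition reaches that limit but some replicates miss it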;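 also: 0% = plate neutral control median and 100% = total signal loss; the record names both 10 and 1 µM as test concentration; the first replicate is given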
Target sequence (P42568 whole entry, looked up): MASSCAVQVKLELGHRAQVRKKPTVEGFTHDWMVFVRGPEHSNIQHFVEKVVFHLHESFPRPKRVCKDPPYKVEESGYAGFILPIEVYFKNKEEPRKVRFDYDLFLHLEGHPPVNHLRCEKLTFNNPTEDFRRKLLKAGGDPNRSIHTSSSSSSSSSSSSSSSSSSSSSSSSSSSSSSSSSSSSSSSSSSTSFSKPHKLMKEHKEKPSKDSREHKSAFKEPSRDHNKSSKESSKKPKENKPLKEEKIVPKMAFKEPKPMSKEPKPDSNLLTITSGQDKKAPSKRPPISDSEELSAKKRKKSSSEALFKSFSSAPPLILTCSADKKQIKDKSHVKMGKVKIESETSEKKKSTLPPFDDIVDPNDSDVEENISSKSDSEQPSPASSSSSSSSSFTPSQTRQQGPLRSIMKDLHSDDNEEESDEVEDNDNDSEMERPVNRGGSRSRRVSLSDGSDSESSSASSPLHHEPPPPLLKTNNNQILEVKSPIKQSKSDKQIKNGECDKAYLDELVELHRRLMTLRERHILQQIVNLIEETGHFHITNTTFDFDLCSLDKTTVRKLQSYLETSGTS
Calb FLC = C. albicans growth inhibition with fluconazole, primary screen, CaCi-2 strain, Alamar Blue fluorescence. C. albicans CaCi-2 (fluconazole-resistant clinical isolate) + fluconazole, 48 h. growth inhibition, % (no concentration beside the values). 300,000 tested, 0.57% active. AID 1979, 2009;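 active = most replicates above 75%; inconclusive = exactly half above 75%; inactive = most below 75%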;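 also: all wells also contain fluconazole at 8 µg/ml as a sub-toxic cotreatment; 0% = median of DMSO wells and 100% = median of geldanamycin control wells; wells of about 8 µL received 7.5 nL stock; the first replicate is given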
A1 inh = caspase 3/7 activation in MEF A1-2A-BIM cells, primary screen, A1 inhibitor project, cell-based, luminescence, HTS; 330,000 tested, 0.066% active; AID 2462, 2010; Caspase-Glo 3/7 luminescence, 3 h; percent of clofoctol response, vehicle zero; caspase activation, % (test concentration not listed);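 active = over half of replicate activation scores above 10%, or exactly half above 10 with the replicate mean above 10; inconclusive = replicate mean below 10 yet half the replicates above 10; inactive = over half of replicates below 10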;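 also: wells of about 30 µL received 50 nL stock; many hits fall short of the cut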
Beta apoptosis = inhibitors of cytokine-induced beta cell apoptosis, primary screen, luminescence. 300,000 tested, 0.8% active. protection from apoptosis, % (no concentration beside the values). INS-1E cytokine-induced death, ATP luminescence, 48 h; percent of positive-control rescue, neutral wells zero;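 active = all replicates at 75% or more, or half of them and the mean; inconclusive = half reach 75% but not the mean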;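 also: 0% = cytokine-treated negative control wells and 100% = positive control rescue; higher means more ATP so stronger rescue from cytokine killing; wells of about 40 µL received 100 nL stock; the first replicate is given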
T cruzi inh = inhibitors of intracellular T. cruzi growth, primary screen, luminescence, NIH3T3 host cells. 300,000 tested, 1.4% active. T. cruzi beta-gal in NIH3T3, 90 h. AID 1885, 2009. inhibition, % (concentration not given with the values);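 active = mean inhibition across valid replicates above about 55%, limit read from the data; inconclusive = mean below that limit but half or more replicates reach it; inactive = mean below it, under half of replicates reach it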;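 also: signal also drops with host cell toxicity which is not excluded here; 0% = plate median of DMSO wells and 100% = zero luminescence signal; higher percent means less beta-gal luminescence so fewer parasites; stock transfer was 50 nL into about 50 µL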
RanGTP-Impb inh = inhibitors of RanGTP-importin-beta interaction, primary screen, biochemical, FRET, CFP-Ran, YFP-importin-beta, homogeneous. cell-free CFP-Ran/YFP-importin-beta FRET ratio. 300,000 tested, 1.1% active. inhibition, % (concentration not given with the values). Ran GTPase (GTP-bound) - importin-beta complex;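 active = most replicates above 15%; inconclusive = exactly half above 15%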;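 also: 0% = DMSO wells and 100% = Ran loaded with GDP instead of GTP; wells of about 40 µL received 100 nL stock; the first replicate is given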
Ecoli rRNA inh = reduced GFP signal of wild-type E. coli, primary screen, bacterial rRNA inhibitor project, GFP/RFP fluorescence, OD600, single point; GFP signal change (wild-type ribosome), % (test concentration not listed); E. coli WT GFP vs humanized-ribosome RFP mutants, 24 h; hits give low values; DMSO median 0, no signal -100; AID 720706, 2013; 350,000 tested, 1.6% active;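 active = significant combined selectivity score with lowered wild-type GFP, culture density cut under 30%, mutant RFP and density less affected; inactive = any of these conditions unmet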; also: one replicate is shown; some compounds called inactive have numbers as strong as hits
Ecoli rRNA inh OD600 = further read-out of Ecoli rRNA inh, marked with its call; OD600 change, %; measured here: OD600 growth;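 optical density of the mix in the first replicate; 0 = DMSO median and -100 = no signal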
Ecoli rRNA inh RFP = recorded beside Ecoli rRNA inh, whose call it bears; RFP signal change, %; measured here: RFP humanized mutant strains;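 first replicate; 0 = DMSO median and -100 = no signal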
An asterisk follows results filed as active; ? = inconclusive; . = not tested or not shown.

SMILES	Vif A3G	AF4-AF9 inh	Calb FLC	A1 inh	Beta apoptosis	T cruzi inh	RanGTP-Impb inh	Ecoli rRNA inh	Ecoli rRNA inh OD600	Ecoli rRNA inh RFP
O=C(NCc1ccc2c(c1)OCO2)c1nc(Cn2ccc([N+](=O)[O-])n2)no1	.	0.5	-1.2	-1.0	-1.3	6.0	-2.0	9.1	1.1	-3.6
Cc1ccc2nc(C)cc(C(=O)OCC(=O)c3ccc(Cl)c([N+](=O)[O-])c3)c2c1	2.2%	.	-6.0	-0.8	-7.0	-2.5	-2.9	.	.	.
CCOC(=O)c1cnc2c(C#N)c(C)nn2c1C	2.0%	.	3.5	0.0	2.8	-5.0	-0.4	.	.	.
CC(C)(C)OC(=O)CNC(=O)c1[nH]cnc1C(=O)NCCCCCN	.	1.4	-0.3	-0.2	-3.8	-8.8	-2.1	20.8	24.1	-3.0
COc1ccc(-c2ccc(CCC(=O)O)n2NC(=O)c2ccc(O)cc2)cc1	29.7%	1.9	-4.1	0.7	-2.5	-2.3	-1.3	9.0	5.8	0.7
CC1CCN(C(=O)C2CCCN2S(=O)(=O)c2ccc(Cl)cc2)CC1 (stereo unspecified)	.	-0.1	10.2	0.0	-2.5	-10.5	?	2.5	4.6	4.5
COc1ccc(/C=C2\SC(=S)N(CCC(=O)Nc3cccc(C(=O)O)c3)C2=O)cc1OC	-1.3%	0.8	-11.6	0.7	-1.8	0.6	-0.9	8.5	17.4	-2.1
Cc1cccc(OCCC(=O)NCC(c2ccccc2)N(C)C)c1 (stereo unspecified)	-0.5%	.	-2.6	0.2	-13.8	1.7	-2.6	.	.	.
Cc1ccc(S(=O)(=O)N2CCOCC2)cc1C(=O)OCC(=O)NC1CC1	.	-6.6	.	-0.5	-3.4	.	.	4.8	3.3	-1.4
Cc1ccc(-n2ccc(=O)c(C(=O)O)n2)cc1	-7.3%	.	-4.9	-0.4	1.1	-18.5	-1.3	.	.	.
Nc1nc(SCC(=O)NCc2ccco2)[nH]c(=O)c1-c1ccccc1	6.6%	.	0.5	0.2	2.0	-12.2	?	.	.	.
Cc1nc(-c2cccc(NC(=O)C(C)Oc3ccccc3)c2)cs1 (stereo unspecified)	-11.6%	-2.4	24.2	0.6	-4.5	0.7	-4.6	-29.6	-31.3	-5.3
CCS(=O)(=O)N1CCN(Cc2ccc([N+](=O)[O-])cc2)CC1	.	.	?	0.0	1.6	-19.0	-0.1	.	.	.
CSC1=C(C#N)C(c2ccccc2C)C(C#N)=C(N)N1 (stereo unspecified)	8.3%	.	34.5	-0.8	1.9	4.8	.	.	.	.
N#Cc1ccsc1NC(=O)C1CCN(C(=O)c2ccc(F)cc2)CC1	2.7%	1.2	.	1.0	1.4	.	.	.	.	.
COc1ccc(C2(C(=O)NCCN3CCOCC3)CCOCC2)cc1	-1.3%	.	4.8	0.7	-9.0	-13.7	-0.9	.	.	.
CCC(O)CNc1nc(-n2nc(C)cc2C)nc2sc3c(c12)CC(C)(C)OC3 (stereo unspecified)	-1.9%	-2.8	25.8	-0.3	20.4	16.1	-0.9	7.9	1.6	7.7
COCCNC(=O)Cn1cnc2c1c(=O)n(C)c(=O)n2C	19.4%	.	-0.7	0.3	-5.3	-11.0	-2.0	.	.	.
C[C@H](NC(=O)[C@H]1N2C(=O)c3ccccc3C2SC1(C)C)C(=O)N1CCC[C@H]1C(=O)O (stereo partly specified)	.	-1.3	0.9	0.4	-5.1	-15.8	1.6	6.0	-2.6	0.0
CN(C)c1nc(F)c(F)c(S(=O)(=O)c2ccccc2)c1F	0.6%	6.4	8.1	0.3	6.0	45.4	-0.2	-15.1	-6.2	-1.5

5 entries already listed, ordered by heavy-atom count, lowest first.
SMILES	Vif A3G	AF4-AF9 inh	Calb FLC	A1 inh	Beta apoptosis	T cruzi inh	RanGTP-Impb inh	Ecoli rRNA inh	Ecoli rRNA inh OD600	Ecoli rRNA inh RFP
CN(C)c1nc(F)c(F)c(S(=O)(=O)c2ccccc2)c1F	0.6%	6.4	8.1	0.3	6.0	45.4	-0.2	-15.1	-6.2	-1.5
Cc1nc(-c2cccc(NC(=O)C(C)Oc3ccccc3)c2)cs1 (stereo unspecified)	-11.6%	-2.4	24.2	0.6	-4.5	0.7	-4.6	-29.6	-31.3	-5.3
N#Cc1ccsc1NC(=O)C1CCN(C(=O)c2ccc(F)cc2)CC1	2.7%	1.2	.	1.0	1.4	.	.	.	.	.
CCC(O)CNc1nc(-n2nc(C)cc2C)nc2sc3c(c12)CC(C)(C)OC3 (stereo unspecified)	-1.9%	-2.8	25.8	-0.3	20.4	16.1	-0.9	7.9	1.6	7.7
C[C@H](NC(=O)[C@H]1N2C(=O)c3ccccc3C2SC1(C)C)C(=O)N1CCC[C@H]1C(=O)O (stereo partly specified)	.	-1.3	0.9	0.4	-5.1	-15.8	1.6	6.0	-2.6	0.0

Next section:
SMILES	Vif A3G	AF4-AF9 inh	Calb FLC	A1 inh	Beta apoptosis	T cruzi inh	RanGTP-Impb inh	Ecoli rRNA inh	Ecoli rRNA inh OD600	Ecoli rRNA inh RFP
CC1Sc2ccc(S(=O)(=O)CCC(=O)N3CCN(c4ccccc4)CC3)cc2NC1=O (stereo unspecified)	.	-1.1	-1.8	0.1	-6.4	7.0	-0.3	-1.6	9.2	-1.4
CCCNC(=O)c1ccccc1C(=O)NCCC	-3.8%	.	-3.6	0.1	.	-6.1	-3.1	.	.	.
CCc1ccc(NC(=O)C2CCCN(S(C)(=O)=O)C2)cc1 (stereo unspecified)	3.8%	-1.9	-6.2	0.0	-3.2	20.1	5.2	7.4	12.2	2.2
O=C(Nc1ccc2nsnc2c1)c1ccc2c(c1)OCO2	-12.8%	3.3	.	-9.0	10.5	.	.	10.5	15.0	-9.6
NC(=O)NC(=O)COC(=O)c1ccc2noc(-c3ccccc3)c2c1	.	2.0	1.1	-0.1	-10.5	-3.4	-0.2	1.3	7.6	4.7
Cc1ccccc1-c1nnn(CC(=O)N2CCN(S(=O)(=O)c3ccc(Cl)cc3)CC2)n1	-2.1%	.	-1.6	-0.4	-4.4	14.7	-0.4	.	.	.
Cc1c(C(=O)Nc2ccccc2C(=O)N2CCCC2)cccc1[N+](=O)[O-]	-2.7%	-1.8	-10.2	-0.8	-5.6	-7.0	0.3	8.9	4.8	-0.8
COCCNCCCCSc1ccc(Cl)cc1	5.8%	-0.1	-48.7	0.3	-0.4	10.1	-3.4	5.4	1.3	0.7
CCC(=O)Nc1ccc(Cl)c(NC(=O)c2ccccc2OC)c1	.	-1.2	9.1	0.4	3.8	1.6	2.5	-2.8	-1.3	-2.4
Cc1cc(C)c2c(n1)nn1c(NCCOCCO)cc(C)nc21	-4.5%	.	-2.6	-0.5	-0.8	0.9	38.1*	.	.	.
O=C(c1sc2ccccc2c1Cl)N1CCN(c2ncccn2)CC1	-11.1%	-1.5	10.2	-0.3	-5.2	5.9	-1.1	-30.2	-42.7	-6.6
Cc1ccc(CC(=O)NCCN2CCOCC2)cc1	-6.3%	0.9	12.7	-0.8	1.5	0.6	-3.7	9.9	18.7	0.0
Cc1ccc2[nH]c3c(c2c1)SC(C)(C)CC3=O	-2.5%	4.7	-6.1	0.3	0.5	4.9	21.0*	-17.5	-18.5	1.2
Cc1nnc2n1N=CC=C(C(C)(C)C)S2	-1.5%	.	-3.0	-0.2	-4.8	15.7	4.6	.	.	.
Cc1cccc(NC(=O)NCCN2CCN(c3ccccc3)CC2)c1C	-11.9%	-0.7	-4.3	0.4	-0.2	14.8	-1.8	-2.4	6.5	-2.7
COc1ccc(C(C(=O)NC(C)(C)C)N(C(=O)Cn2nnc3ccccc32)c2ccc(C(C)=O)cc2)cc1O (stereo unspecified)	0.8%	-0.9	14.4	1.3	-2.9	6.8	2.8	-0.5	-5.8	-1.5
CCOc1ccc(NC(=O)C2CCN(S(=O)(=O)CC)CC2)cc1	.	-1.9	-16.1	0.6	-4.6	-6.3	0.3	24.0	4.0	1.6
COc1cc(N2C(=O)c3ccccc3C2=O)c(Cl)cc1C(=O)OCC(=O)NCc1ccco1	1.3%	.	-2.8	2.2	-7.6	-5.8	2.2	.	.	.
COc1ccc(NC(=O)CN2CCc3ccccc3C2)c(OC)c1	.	-0.2	0.4	0.7	-14.3	3.7	8.9	-9.7	-15.7	-2.0
COc1cc(-c2nnc(NC(=O)c3ccco3)o2)cc(OC)c1OC	6.2%	2.6	5.9	-0.2	0.9	-3.4	0.8	-12.4	-16.0	5.7

Continued (two carried over from the part before).
SMILES	Vif A3G	AF4-AF9 inh	Calb FLC	A1 inh	Beta apoptosis	T cruzi inh	RanGTP-Impb inh	Ecoli rRNA inh	Ecoli rRNA inh OD600	Ecoli rRNA inh RFP
COc1ccc(NC(=O)CN2CCc3ccccc3C2)c(OC)c1	.	-0.2	0.4	0.7	-14.3	3.7	8.9	-9.7	-15.7	-2.0
COc1cc(-c2nnc(NC(=O)c3ccco3)o2)cc(OC)c1OC	6.2%	2.6	5.9	-0.2	0.9	-3.4	0.8	-12.4	-16.0	5.7
Cc1ccc(S(=O)(=O)Nc2ccc(C(=O)OCC(=O)N(CCC#N)c3ccccc3)cc2)cc1C	-2.9%	.	-9.3	1.4	-4.0	-12.4	-4.2	.	.	.
O=c1c2oc3ccccc3c2ncn1Cc1ccccc1Cl	-6.8%	.	-38.3	-0.1	-1.0	-0.7	-1.8	.	.	.
Oc1ccc(-c2nccc(-c3ccc(F)cc3)n2)cc1	0.8%	-0.1	-24.3	-0.1	-0.8	12.2	?	-19.1	-41.2	-5.0
Cc1ccc(S(=O)(=O)NC(=O)Nc2ccc(Cl)cn2)cc1	-2.0%	-2.7	0.4	0.4	-0.6	-11.8	2.4	9.7	8.3	-1.0
COc1ccc(/C=C2\Oc3cc(OCC(=O)N4CCC[C@H]4C(=O)O)ccc3C2=O)cc1OC	.	.	-1.1	-0.5	-0.4	-2.4	-66.5	.	.	.
Nc1nnnn1/N=C/c1ccccc1C(F)(F)F	0.1%	.	-4.8	-0.1	-3.7	0.9	2.7	.	.	.
Cc1ccccc1N1CCN(C(=S)c2ccccc2)CC1	-6.1%	.	0.0	0.4	-5.7	18.5	0.8	.	.	.
Cc1ccc(S(=O)(=O)NC2CCCC2)cc1C	-9.9%	.	-3.1	-0.1	-10.1	2.5	4.2	.	.	.

A portion of the library; the hit share may differ from the screen's.
